# Screens from PubChem BioAssay.
# Vaccinia pol inh – blocks vaccinia virus processive DNA synthesis | normalized absorbance, % (no concentration beside the values) | AID 493162 | in vitro processive DNA synthesis, absorbance read-out; stronger effect = lower value; some inactives read as strong as hits | actives 0.94% (n = 46,000);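 active = replicate mean up to 90% and picked by the depositor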;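 note: 100% = median of the test wells of a plate; 100 nL library stock went into each well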
# Active calls of the source: *.
# Sample of the layout (10 entries):
SMILES,Vaccinia pol inh
O=C(Nc1nnc(-c2ccc(Cl)cc2)o1)c1ccco1,89
COc1ccc(-c2onc(C)c2-c2cscn2)c(O)c1,99
CCc1ccc(OCCCC(=O)NCc2ccco2)cc1,99
Nc1ccc(S(=O)(=O)Nc2cnc3ccccc3n2)cc1,94
CN(C)CCN(Cc1cccs1)c1ccccn1,100
CCOc1ccc2c(c1)sc(=NC(=O)c1ccc(S(=O)(=O)N3CCc4ccccc43)cc1)n2C,100
Nc1c(N2CCN(c3ccccc3)CC2)c2ccccc2oc1=O,98
Cc1noc(C)c1CN1CCN(c2ccccc2)CC1,98
Ic1ccc2nc(-c3ccccc3)cn2c1,113
CCc1nn2c(=O)c(S(=O)(=O)Nc3ccccc3)c(C)nc2s1,102

# All compounds of this part, from the start:
SMILES,Vaccinia pol inh
O=C(Nc1nnc(-c2ccc(Cl)cc2)o1)c1ccco1,89
COc1ccc(-c2onc(C)c2-c2cscn2)c(O)c1,99
CCc1ccc(OCCCC(=O)NCc2ccco2)cc1,99
Nc1ccc(S(=O)(=O)Nc2cnc3ccccc3n2)cc1,94
CN(C)CCN(Cc1cccs1)c1ccccn1,100
CCOc1ccc2c(c1)sc(=NC(=O)c1ccc(S(=O)(=O)N3CCc4ccccc43)cc1)n2C,100
Nc1c(N2CCN(c3ccccc3)CC2)c2ccccc2oc1=O,98
Cc1noc(C)c1CN1CCN(c2ccccc2)CC1,98
Ic1ccc2nc(-c3ccccc3)cn2c1,113
CCc1nn2c(=O)c(S(=O)(=O)Nc3ccccc3)c(C)nc2s1,102
CCc1ccccc1NC(=O)CSc1nc2c(c(=O)[nH]1)CCC2,90
CNC(=O)[C@H]1O[C@@H](n2cnc3c(NCc4ccc(I)cc4)ncnc32)[C@H](O)[C@@H]1O,99
FC(F)(F)COc1nc(NCCOC23CC4CC(CC(C4)C2)C3)nc(OCC(F)(F)F)n1,100
Cc1ccn2cc(CCNC(=O)c3ccc(C(F)(F)F)cc3)nc2c1,100
COc1ccccc1C(C1=C(O)COC1=O)c1cc2c(cc1O)OCO2 (stereo unspecified),100
COc1cccc(-n2c(=S)sc3c(=O)n(-c4ccccc4)c(SCC4OCCO4)nc32)c1,99
CCc1cccc(NC(=O)C2CCN(Cc3cnn(-c4ccccc4)c3-n3cccc3)CC2)c1,92
CCS(=O)(=O)Nc1cccc(C2=NN(S(=O)(=O)CC)C(c3ccccc3)C2)c1 (stereo unspecified),101
CCOC(=O)c1cc2c(=O)n3ccccc3nc2n(C(C)C)c1=NC(C)=O,88
COc1cccc(C=Nc2ccc(-c3nc4ccc(C)cc4o3)cc2)c1O,100
N=c1sc2ccccc2n1-c1ccccc1,106
COc1ccc(C2N(C)C(=O)c3ccccc3S2(=O)=O)cc1 (stereo unspecified),104
O=C1NC(c2ccccc2)=N/C1=C\c1ccco1,91
CN(C1CCCCC1)S(=O)(=O)c1ccc2c(c1)c(=O)c(C(=O)NCCN1CCCC1)cn2C,87
CCOc1ccc(N2CCc3c2nc2ccc(Br)cc2c3N)cc1,99

# Following part.
SMILES,Vaccinia pol inh
O=c1cc(-c2ccccc2)nc(SCc2nc(-c3cccs3)no2)[nH]1,99
O=c1oc(-c2cc3ccccc3o2)nc2sc3c(c12)CCCC3,100
COc1ccc(-c2noc(N3CCCC3)n2)cc1OC,95
C=CCN(C(C)=O)c1nc(C)c(Br)c(OC)n1,101
Cc1nnc(SCC(=O)NCc2ccc3c(c2)OCO3)s1,89
CC(CN(C)Cc1ccccc1)OC(=O)C1COc2ccccc2O1 (stereo unspecified),95
O=C(Nc1ccccc1)C1Cc2ccccc2CN1S(=O)(=O)c1ccc(F)cc1 (stereo unspecified),100
CC1Cc2ccccc2N1C1=CC(=O)CCC1 (stereo unspecified),101
COc1ccc(-c2cn(-c3ccccc3)c3[n+]2CCS3)cc1,96
Cc1ccc(S(=O)(=O)NC(=O)OCCn2ncc3ccccc3c2=O)cc1,108
Cc1ccc(Cl)cc1NC(=O)CCN1C(=O)c2ccccc2Sc2ncccc21,100
Cc1ccc(C(=O)CSC2=NCCCCC2)cc1,82
Cc1ccc(NC(=S)N(Cc2c[nH]c3ccccc23)C(C)C)cc1C,104
CCC(=O)n1nc(-c2ccco2)nc1SC,99
NC(=O)NC(=O)Cc1nc2ccccc2s1,101
CCc1cccc(CC)c1NC(=O)COC(=O)Cc1ccsc1,105
CNC(=O)Cn1cccc1C(=O)c1ccccc1C,103
CSc1cccc(NC(=O)CSc2ncccc2C(=O)OC(C)C)c1,102
Cc1cc(S(=O)(=O)NN(C)c2cccc(Cl)c2C#N)cc(C)c1F,90
COC(=O)Cc1c(-c2ccccc2)c2cc(Br)ccc2[nH]c1=O,105
Nc1c(-c2ccccc2)nnn1-c1ccccc1,98
O=C(CSc1ccc(Cl)cc1)Nc1ccc(NC(=O)c2ccco2)cc1,98
CN(C(=O)COC(=O)c1ccc(Br)cc1)C1CCCCC1,98
CC(C)(C)n1nnc(-c2ccccc2)n1,99
O=C(CSc1nc2cc(Cl)ccc2o1)NC1CC1,75

# Next entries
SMILES,Vaccinia pol inh
c1ccc(C[n+]2ccc(-c3nc4ccccc4s3)cc2)cc1,95
CC(=O)Nc1ccc2c(c1)C(C)(C)C(C)N2C (stereo unspecified),90
c1ccc(-n2nnnc2-c2nc3ccccc3s2)cc1,114
CCOC(C)n1cccc1-c1ccccc1 (stereo unspecified),98
CC(C)NC(=O)c1ccc2c(=O)[nH]c3c(C(=O)NC(C)C)sc(=S)n3c2c1,97
CCOC(=O)COc1nc(-c2cccs2)cc(C(F)(F)F)n1,85
CCCC1CCC(c2ccc(OC(=O)c3cccs3)cc2)CC1 (stereo unspecified),100
O=C(NCc1cn2ccsc2n1)c1ccccc1C(F)(F)F,103
COc1ccccc1N1CCN(Cc2ccc(SC)cc2)CC1,100
Cc1cccc(N2CCN(C(=O)CN3CCN(Cc4ccc(Cl)cc4)C3=O)CC2C)c1 (stereo unspecified),96
COc1ccccc1N1CCN(C(=O)c2cnc(Nc3ccc(C)c(Cl)c3)c3ccccc23)CC1,93
CC1(C)CC(NC(=S)NC(=O)c2ccccc2)CC(C)(C)N1,100
CN1C(=O)NC(c2ccccc2)C2=C1CC(C)(C)CC2=O (stereo unspecified),99
CN(Cc1ccccc1)C(=O)c1cc(S(=O)(=O)N2CCCC2)cn1C,103
COc1ccc2c3c([nH]c2c1)[C@@H]1C[C@@H]2C(OC(C)=O)=COC(C)C2CN1CC3 (stereo partly specified),98
O=C(O)/C=C/C(=O)Nc1ccc(SC(F)(F)F)cc1,84
CCNC(=O)[C@@H]1O[C@H](n2cnc3c(N)ncnc32)[C@@H](O)[C@H]1O,100
CCCCn1nc(NS(=O)(=O)c2ccc(C)cc2)c2cc3cccc(C)c3nc21,100
Cc1nc2cc(-n3ccc(=O)cc3)ccc2n1-c1ccccc1,99
COC(=O)C(=O)/C=C(\O)c1c(F)c(F)c(OC)c(F)c1F,102
OCC(O)C1OC(Nc2ccc(Cl)cc2)C(O)C1O (stereo unspecified),101
CN1C2CCC1CC(NC(=O)CS(=O)(=O)c1ccccc1)C2 (stereo unspecified),108
OCCN1CCN(Cc2cc(Cl)c3cccnc3c2O)CC1,100
CCc1cc2c(Cl)ncnc2s1,100
CCOc1ccccc1C1C(C#N)=C(SC)NC2=C1C(=O)CCC2 (stereo unspecified),87

# Further results:
SMILES,Vaccinia pol inh
N#C/C(=C\C(=C\N1CCOCC1)c1ccccc1)c1ccccc1,104
CC1(C)C(=S)NC(c2ccccc2)N1O (stereo unspecified),104
CC(NC(=O)c1cccs1)C(c1cccs1)N1CCN(C)CC1 (stereo unspecified),100
Cc1nc(COc2ccc(C(C)(C)C)cc2)ncc1S(=O)(=O)c1ccc(Cl)cc1,100
CCCCN(C(=O)Nc1cccc2ccccc12)C1CCS(=O)(=O)C1 (stereo unspecified),101
CCn1c(O)c(C2=c3cc(Cl)ccc3=NC2=O)c2ccccc21,96
O=C(Nc1cc2c(ccc3ccccc32)oc1=O)c1ccccc1,99
O=C(CSc1nc2ccccc2c2nc3ccccc3n12)NCc1ccco1,99
Cc1n[nH]c(C)c1Sc1ccccc1,98
CC(C)CNC(=O)c1cccc(S(=O)(=O)N(C)C)c1,91
c1cncc(Oc2ncnc3sc4c(c23)CCCC4)c1,87
COc1ncnc2nc[nH]c12,100
O=C(NC1CN2CCC1CC2)c1cccc(Cl)c1 (stereo unspecified),91
OC(CN1CCN(c2cccnc2)CC1)Cn1nnnc1-c1ccccc1 (stereo unspecified),106
O=C(CSc1cn(Cc2ccccc2)c2ccccc12)N1CCOCC1,99
CNC(=O)c1cc(Br)cc2c1OCC2,104
N#CC1=C(N=Cc2c(O)ccc3ccccc23)CCC1,99
CCc1cccc(C)c1Nc1c(-c2ccsc2)nc2cnccn12,92
Cc1ccc(C)n1CCc1c[nH]c2ccccc12,107
Cc1[nH]c2ccccc2c1SCc1nnc(SCc2ccc(Cl)cc2)n1C,107
CSc1nc2cc(C)nn2c(-c2ccccc2Cl)c1C#N,110
N#Cc1ccc(OCC(=O)N2CCC(C(N)=O)CC2)cc1,102
Cc1cccc(C(=O)N/C(=C/c2ccc(N(C)C)cc2)C(=O)O)c1,99
O=c1ccc(C(F)(F)Cl)c[nH]1,117
CCOC(NC(=O)Nc1ccc(Br)cc1)(C(F)(F)F)C(F)(F)F,98

# Reformatted with each value named: part of the list above
CN1C(=O)NC(c2ccccc2)C2=C1CC(C)(C)CC2=O (stereo unspecified)
  Vaccinia pol inh: 99
CN(Cc1ccccc1)C(=O)c1cc(S(=O)(=O)N2CCCC2)cn1C
  Vaccinia pol inh: 103
COc1ccc2c3c([nH]c2c1)[C@@H]1C[C@@H]2C(OC(C)=O)=COC(C)C2CN1CC3 (stereo partly specified)
  Vaccinia pol inh: 98
O=C(O)/C=C/C(=O)Nc1ccc(SC(F)(F)F)cc1
  Vaccinia pol inh: 84

# (further entries)
SMILES,Vaccinia pol inh
Cc1cc(C(=O)OCC(=O)NCc2ccco2)c(C)n1-c1ccc(F)cc1,102
CC(=O)OC(C(=O)Nc1cccc(C)n1)c1ccccc1 (stereo unspecified),100
C=CCN(CC=C)C(=O)C[n+]1cccc(C(N)=O)c1,100
OC(CN1CCCCC1)CN1c2ccccc2Sc2ccccc21 (stereo unspecified),101
c1ccc2c(c1)CCN(CCCNc1nc3ccccc3n3nnnc13)C2,82
c1ccc2c(N3CCCCC3)nc(N3CCCCC3)nc2c1,100
O=C(c1ccccc1)c1cc(Br)ccc1N=Cc1ccccc1O,97
O=S(=O)(NC1CCN(Cc2c(F)cccc2Cl)CC1)c1ccc(C(F)(F)F)cc1,95
OC(CN1CCCCC1)C(F)(F)F (stereo unspecified),116
Cc1ccccc1C(=O)Nc1cccc(-c2cn3ccccc3n2)c1,100
Cc1noc(/C=C/N(C)C)c1S(=O)(=O)N(C)CCc1ccc(Cl)cc1,103
O=C(Nc1ccccc1I)c1cc[n+]([O-])cc1,105
O=c1nc(-c2cccs2)cc(C(F)(F)F)[nH]1,110
O=C(Nc1nc2ccc(Cl)cc2s1)c1ccc(Br)s1,95
COc1ccc(OCC(O)CN2CCc3ccccc3C2)cc1 (stereo unspecified),99
CCC(Sc1nc2n[nH]c(C)c2c(=N)n1-c1cccc(Cl)c1C)C(=O)N(CC)CC (stereo unspecified),103
CCOc1ccc(Cc2c(Cl)nc(SC)nc2Cl)cc1,104
Nc1ccc(Oc2ncccn2)cc1,104
COc1ccc(/C=C2\SC(N)=NC2=O)cc1O,99
S=C(CN1CCCC1=S)NCCc1ccccc1,100
Cc1cnc(C(=O)NCCc2ccc(S(=O)(=O)NC(=O)NC3CCCCC3)cc2)cn1,99
O=C(NCCO)C(O)(c1ccccc1)c1ccccc1,101
c1ccc(-c2cc(-c3ccccc3)n(-c3ccccc3)n2)cc1,96
CCOC(=O)c1ccsc1NC(=O)c1ccco1,96
Cc1ccc(-c2csc(-c3ccc(C(F)(F)F)cc3)n2)cc1,101

# (listing goes on)
SMILES,Vaccinia pol inh
C=C1C2(C(=O)O)CCC(C2)C1(C)C (stereo unspecified),101
CN(C)c1ccc(-c2[nH]c(=S)[nH]c(=O)c2C#N)cc1,95
Cn1cccc1C(C#N)c1cccc(F)c1C#N (stereo unspecified),92
O=C(Nc1ccccc1C(F)(F)F)NC1CCCCC1,100
NC(=O)c1ccccc1NC(=O)CSc1ccccn1,100
CC1CCCN(C(=O)c2cc(=O)c3ccccc3o2)C1 (stereo unspecified),92
COC(CNC(=O)c1c[nH]c2ccc(S(=O)(=O)N3CCC(C)CC3)cc2c1=O)OC,97
CCC1CCCCN1Cc1c(O)ccc2cc(-c3nc(C)cs3)c(=O)oc12 (stereo unspecified),98
Cc1cccn2c(=O)c3cc(C(=O)NCCN4CCOCC4)c(=N)n(C(C)C)c3nc12,100
Nc1ccc(C(O)C(O)CO)cc1 (stereo unspecified),99
CC(C)CC(=O)NC(c1ccccc1)c1c(O)ccc2ccccc12 (stereo unspecified),100
COc1ccc2cc3cc(C(=O)NCC4CCN(Cc5cccc(C)c5)CC4)sc3nc2c1,87
Cc1nc2ccc(NC(=O)c3ccc(N4C(=O)CCC4=O)cc3)cc2s1,90
Clc1ccc(CN2CCN(c3ccccc3)CC2)cn1,125
S=C(Nc1ccccc1)Nc1nc2ccccc2n1CCOc1ccc(Cl)cc1,100
COc1ccc(NC(=O)CSc2nnc3n2CCCCC3)cc1,100
CSc1ccc(CCNC(=O)c2cccc3c2C(=O)N(CC2CCCO2)C3)cc1 (stereo unspecified),91
O=C1O/C(=C\c2ccc(Cl)cc2Cl)c2ccccc21,96

# These rows are one share of the data, so the mix of outcomes need not match the whole.
